Compound activity deposited in PubChem BioAssay by ICCB-Longwood Screening Facility, Harvard Medical School.
Ba CapD inh: blocks the Bacillus anthracis CapD enzyme | purified CapD enzyme, fluorescence intensity read-out; active compounds read low; some hits fall short of the stated cut | z-score (concentration not given with the values) | hit rate 0.23% among 140,000 | AID 492967;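 active means z-score under -4 in either of two replicates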;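 further: stock transfer was 100 nL into about 40 µL; score is relative to mean and spread of the plate; one replicate is shown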
AID504770: growth inhibitors of E. coli YBA685 in a screen for V. cholerae RctB (chromosome II replication) inhibitors | E. coli YBA685 rctB-dependent plasmid, OD600 growth, 3 h; active compounds read low | z-score (no concentration beside the values) | hit rate 0.27% among 130,000;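 active means z-score under -2 on both plates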;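 further: wells of about 30 µL received 100 nL stock; score is relative to mean and SD of the test wells; the first replicate is given; strong numbers were not always called active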
An asterisk follows results filed as active; . = no result given. A portion of the library. The share of hits here may be higher or lower than overall.

Results follow in this order: AID504770, Ba CapD inh
- O=C(O)c1ccc(C(=O)Nc2cccc(Cl)c2)c(C(=O)O)c1
→ -0.15, -1.68
- COc1ccc2nc(SCC(=O)Nc3ccc(Cl)c(Cl)c3)[nH]c2c1
→ ., -0.02
- CCN(CC)c1ccc(/C=C2\NC(=S)N(c3ccc(OC)cc3)C2=O)c(OC)c1
→ ., -0.495
- O=S(=O)(c1ccc(Cl)cc1)N1CCCN(S(=O)(=O)c2ccc(Cl)cc2)CC1
→ ., 0.575
- NNC(=O)CN1c2ccccc2Sc2ccccc21
→ -0.5, 1.31
- CC1(C)CC(=O)C2=C(C1)c1c(ccc3ccccc13)NC2c1ccc(-c2cc([N+](=O)[O-])ccc2Cl)o1 (configuration not stated)
→ ., -0.13
- CCOc1ccccc1/C=N/NC(=O)c1ccccc1O
→ -0.5, 2.53
- CCN(Cc1ccncc1)C(=O)c1ccc(F)cc1F
→ 1.35, -0.21
- CCC(C)c1ccc(S(=O)(=O)N2CCN(C(C)CC(=O)O)CC2)cc1 (configuration not stated)
→ -0.2, .
- Cc1nc2cc(-c3ccccc3)nn2c(C)c1CCC(=O)NC1CCCC1
→ -0.4, 4.5
- N#CCn1c(CN2CCOCC2)nc2ccccc2c1=O
→ -0.2, .
- Cc1ccc(C(=O)NCO)cc1
→ -0.1, -0.225
- CCCN(CCC)S(=O)(=O)c1ccc(CCN2C(=O)c3cccnc3C2=O)cc1
→ -0.95, -0.695
- CCCCOC(=O)Cc1c(C)[nH]c(=O)[nH]c1=O
→ 1.6, .
- CCc1ccc(S(=O)(=O)Nc2ccc3oc4c(c3c2)C(=O)CCC4)cc1
→ -0.3, .
- c1ccc(-c2nnc3ccc4nnc(-c5ccccc5)n4n23)cc1
→ -1.65, 0.2
- CC(C)C(=O)NC(C)C(c1cccs1)N1CCN(c2ccccc2)CC1 (configuration not stated)
→ -0.25, 0.34
- Cc1nnc2n(C3CCCCC3)c(=O)c3c4c(sc3n12)CCC4
→ 0.3, -0.275
- CCOC(=O)Nc1ccc2c(c1)N(C(=O)CN(CC)CC)c1ccccc1CC2
→ ., -0.115
- CCCC(=O)N(CC)Cc1cc2cc(OC)ccc2[nH]c1=O
→ -0.9, 49.5

(listing goes on)
Results follow in this order: AID504770, Ba CapD inh
- Cc1cccc(NC(=O)NCC(c2ccco2)N2CCc3ccccc3C2)c1 (configuration not stated)
→ 1.4, .
- O=C(NC1CCCC1)C1CCCN1C(=O)OCc1ccccc1 (configuration not stated)
→ 0.25, 0.775
- CN(C)S(=O)(=O)c1ccc(C(=O)OCC(N)=O)cc1
→ 0.4, .
- COC(=O)c1oc2ccccc2c1-n1cccc1
→ 2.15, 0.19
- CCCN1CCC(N(C(=O)Nc2ccccc2C(=O)NCc2cccnc2)C2CC2)CC1
→ ., -0.305
- C=CCOc1ccc(C2N3CC4(C)CN2CC(C)(C3)C4=O)cc1 (configuration not stated)
→ ., -0.245
- COc1cccc(C2=NN3C(C2)c2cccc(OC)c2OC3c2cc(OC)c(OC)c(OC)c2)c1 (configuration not stated)
→ ., -0.35
- COc1ccc(N2CC(C(=O)OC(C)C(=O)c3ccccc3)CC2=O)cc1 (configuration not stated)
→ 0.5, 0.045
- CCOC(=O)CSc1nc(-c2ccc(C)cc2)ns1
→ -0.6, 0.315
- Oc1c(CN2CCc3ccccc3C2)cc(Cl)c2cccnc12
→ -0.65, -0.4
- COc1ccc(CC(=O)c2ccc(OC3OC(CO)C(O)C(O)C3O)cc2O)cc1 (configuration not stated)
→ ., -1.41
- CN(C)S(=O)(=O)c1ccc(C(=O)OC2CCCC2)cc1
→ 0.4, .
- C#CCNc1nc(CC(C)C)nc2c1nnn2Cc1ccccc1
→ 1.3, .
- O=C(CO/N=C/c1ccccc1OC(F)F)N1CCCc2ccccc21
→ -0.4, .
- CCCCC(C(=O)N1CCN(C(=O)C(CCCC)N2C(=O)C3C4C=CC(C4)C3C2=O)CC1)N1C(=O)C2C3C=CC(C3)C2C1=O (configuration not stated)
→ ., 0.15
- NC1=NN(c2ccccc2)C(=O)C1
→ 0.4, 0.055
- COc1ccc(NC(=O)c2cnn3c(C(F)(F)F)cc(-c4ccc(OC)c(OC)c4)nc23)c(OC)c1
→ ., -0.255
- OC(CNCCc1ccccn1)C(F)(F)F (configuration not stated)
→ -0.95, -0.66
- CCc1ccc(OCC(=O)NCCN2CCOCC2)cc1
→ -0.25, .
- O=C(CSc1nc(=O)n2ccccc2n1)N1CCCC1
→ 1.75, .

Profiles, looked up by structure. Screens in order: AID504770, Ba CapD inh
COc1ccc(NC(=O)c2cnn3c(C(F)(F)F)cc(-c4ccc(OC)c(OC)c4)nc23)c(OC)c1 as listed: ., -0.255
O=C(CSc1nc(=O)n2ccccc2n1)N1CCCC1 as listed: 1.75, .

Next compounds.
Results follow in this order: AID504770, Ba CapD inh
- O=C(Nc1nccs1)c1cc(Cl)sc1Cl
→ -1.25, -1.12
- N#Cc1ccccc1COC(=O)C1COc2ccccc2O1 (configuration not stated)
→ -0.55, .
- COc1cc(C=C2C(=O)N(C)C(=O)N(C)C2=O)ccc1OS(=O)(=O)c1ccccc1
→ ., -1.25
- CN(C)C=Nc1ccccc1C1C=NNC1=O (configuration not stated)
→ 0.15, -2.92
- Cn1cnnc1SCC(=O)O
→ 0, .
- CCS(=O)(=O)NCC(c1ccco1)N1CCN(c2ccc(F)cc2)CC1 (configuration not stated)
→ -0.65, .
- Cc1nn(-c2ccccc2)c(C)c1NC(=O)CN1CC(C)OC(C)C1 (configuration not stated)
→ -0.1, .
- C=CCN(CC=C)S(=O)(=O)c1ccc(C(=O)Nc2nnc(-c3ccc(OC)cc3)o2)cc1
→ 0.6, 0.23
- COc1ccccc1NC(=O)N(c1ccc2c(c1)CCN2S(C)(=O)=O)C1CCN(C(C)=O)CC1
→ ., -0.47
- O=C1c2ccccc2C(=O)N1C(CO)C(O)c1ccccc1 (configuration not stated)
→ -0.4, -0.405
- COc1ccc(Oc2ncccc2NC(=O)c2cccc3ccccc23)cc1
→ ., -0.075
- CCNC1(c2nnnn2-c2cccc(Cl)c2)CCC(C)CC1 (configuration not stated)
→ ., -0.355
- Cc1ccc(OCc2nc3ccc(N)cc3[nH]2)cc1
→ -1.75, -0.04
- Cc1nn(CC(C)C)c(Cl)c1/C=C1/C(=O)N(C)C(=S)N1C
→ -0.3, .
- COc1cc2c(C(=O)NCCC(C)C)cn(C)c(=O)c2cc1OC
→ ., 0.63
- O=C(NC1CCN(c2ncccn2)CC1)C1CC1
→ -0.25, 5.69
- COc1ccc(C2C(C#N)=C(N)N(c3cccc([N+](=O)[O-])c3)C3=C2C(=O)CCC3)cc1OC (configuration not stated)
→ ., -0.555
- O=C(NCc1ccccn1)C1CCC(CNS(=O)(=O)c2ccc(F)cc2)CC1 (configuration not stated)
→ 0.4, -0.325
- Nc1cc(C2CCCC2)nn1-c1ccccc1
→ 0, .
- O=C(OCc1cc(F)cc2c1OC(c1ccccc1)OC2)C1CC(=O)N(Cc2ccco2)C1 (configuration not stated)
→ 1.15, .

Retrieved one by one from the list above (3):
Results follow in this order: AID504770, Ba CapD inh
- NC1=NN(c2ccccc2)C(=O)C1
→ 0.4, 0.055
- C=CCN(CC=C)S(=O)(=O)c1ccc(C(=O)Nc2nnc(-c3ccc(OC)cc3)o2)cc1
→ 0.6, 0.23
- COc1ccc(NC(=O)c2cnn3c(C(F)(F)F)cc(-c4ccc(OC)c(OC)c4)nc23)c(OC)c1
→ ., -0.255

(further entries)
Results follow in this order: AID504770, Ba CapD inh
- CC1CCCC(NC(=O)CSc2ccc3c(c2)OCCO3)C1C (configuration not stated)
→ 1.8, .
- COc1cccc(C(=O)NCCN2CCN(c3nccc(C(F)(F)F)n3)CC2)c1
→ -0.45, 0.15
- O=C(c1cc(-c2ccccc2)c(N2CCCCC2)s1)n1ccnc1
→ 0.05, 0.55
- COc1cccc(C2c3c(oc4ccccc4c3=O)C(=O)N2CCCN2CCOCC2)c1 (configuration not stated)
→ 0.55, -0.285
- CCC(C(=O)N(C)c1ccccc1)c1ccccc1 (configuration not stated)
→ 0.55, 0.64
- COc1ccc(C2=N/C(=C\c3cc(OC)c(OC)c(OC)c3)C(=O)O2)cc1[N+](=O)[O-]
→ ., 0.555
- COc1ccc(CCNC(=O)CSc2nnc(-c3ccco3)c(-c3ccco3)n2)cc1OC
→ 1.5, -0.505
- O=P1(N(CCCl)CCCl)NCCCO1 (configuration not stated)
→ 0.45, 6.48
- Cc1c(C#N)sc(-c2ncn[nH]2)c1C
→ -0.4, 1.69
- CCOC(=O)N1CCN(c2cc(N3CCC(C)CC3)c3c4c(onc24)-c2ccccc2C3=O)CC1
→ 0.5, -1.67
- CCN(CC)c1nc(Nc2ccccc2)nc(Oc2ccc(=O)[nH]n2)n1
→ -0.75, .
- O=C(N/N=C/c1ccnc2ccccc12)c1cc(Cl)ccc1Cl
→ ., 4.62
- Cc1cccc(Oc2ccc(N3C(=O)C4C5c6ccccc6C(c6ccccc65)C4C3=O)cc2)c1 (configuration not stated)
→ ., -1.03
- COC(=O)c1ccccc1O[C@@H]1O[C@H](COC(C)=O)[C@@H](OC(C)=O)[C@H](OC(C)=O)[C@H]1NC(C)=O
→ ., -0.18
- CCOC(=O)N1CCC(NC(=O)c2ccco2)CC1
→ 0.85, -0.39
- CC(O)CNC(=O)Cc1cc(=O)[nH]c(=O)[nH]1 (configuration not stated)
→ -1.05, .
- O=C(O)CCc1nc2ccccc2[nH]1
→ -0.2, 0.765
- N#C/C(=C\c1ccccc1O)S(=O)(=O)c1ccc(Cl)cc1
→ -0.55, .
- C=CCn1c2ccccc2c2nnc(SCC(=O)Nc3nc4ccc([N+](=O)[O-])cc4s3)nc21
→ ., 0.065
- CCn1c(C(=O)NCCCN2CCc3ccccc3C2)cc2sccc21
→ -1.15, 1.61

Later entries
Results follow in this order: AID504770, Ba CapD inh
- COc1ccc(/C=C/C2=NC(=C\c3cc(Br)ccc3OC)/C(=O)O2)cc1
→ ., -0.77
- CCc1nc2ccccc2n1CC(C)C(=O)O (configuration not stated)
→ 1.3, .
- O=C(c1noc2c1CCCC2)N1CCCC1
→ 0.4, -0.125
- Cc1cc2c(n1-c1ccc(C(=O)NCc3cccs3)cc1)CCC(C)C2 (configuration not stated)
→ -0.25, 0.74
- O=c1oc2ccc(Br)cc2cc1-c1csc(Nc2cccc(C(F)(F)F)c2)n1
→ ., -0.27
- O=C1CNC(=S)N1CCc1ccccc1
→ 0.15, -0.76
- CCn1nnc2c(N3CCC(O)CC3)ncnc21
→ -0.9, .
- CNc1ccc(Cl)nn1
→ -0.6, .
- O=C(O)c1cccnc1SCc1cccc(Br)c1
→ ., -0.135
- Cc1cc2c3c(C)n(Cc4ccccc4)c(C)c3c(C)nn2c1
→ -2.45, 0.62
- O=C(N/N=C/c1cc(Cl)ccc1O)N/N=C/c1cc(Cl)ccc1O
→ ., -0.23
- O=C(NCc1cccc(Cl)c1)c1ccc(COc2ccc(Cl)cc2)o1
→ 1.05, 1.03
- N#Cc1ccccc1NC(=O)Nc1cc(-c2cccs2)nn1-c1ccc(I)cc1
→ -0.3, 0.42
- CCOc1ccc(C2=NN3C(C2)c2cccc(OC)c2OC3c2cccc(OC)c2)cc1 (configuration not stated)
→ ., -0.385
- CCCn1c(CCCNC(=O)Cc2ccccc2)nc2ccccc21
→ -0.15, -0.035
- CNC(=O)c1ccc2c(c1)CCN2S(C)(=O)=O
→ 0.5, 0.46
- O=C(CC(c1ccccc1)C1CCCCC1=O)c1ccccc1 (configuration not stated)
→ -1.15, 0.22
- O=C(NC(=S)Nc1ncccn1)c1ccc(F)cc1
→ 0.6, .
- O=C(OC/C(=N\O)c1ccccc1)c1ccc(Br)cc1
→ 1.05, -0.425
- CN(CC(O)c1ccccc1)S(=O)(=O)c1ccc(Br)cc1 (configuration not stated)
→ ., -0.97

Next structures follow:
Results follow in this order: AID504770, Ba CapD inh
- CCOc1ccc(CCNC(=O)C(C)CC)cc1 (configuration not stated)
→ ., -0.155
- Cc1cc(OC(C)C(=O)O)c2c3c(c(=O)oc2c1)CCCC3 (configuration not stated)
→ 0.2, 22
- COc1ccc2cc(/C(C)=N/n3c(=S)[nH][nH]c3=S)ccc2c1
→ 0.25, .
- COc1ccc(Cl)cc1C(=O)Nc1ccc(C(=O)Nc2cccc(-c3nc4ccccc4o3)c2)cc1
→ ., -1.87
- Cc1ccn2cc(CCNC(=O)CC(C)(C)C)nc2c1
→ -0.8, 4.62
- c1ccc(C2CC(c3ccco3)n3ncnc3N2)cc1 (configuration not stated)
→ 0.05, -0.73
- CC(C)N(Cc1ccccc1)C(=O)Cc1noc2ccccc12
→ -0.5, -0.025
- COc1cc2c(cc1OC)C(Cc1ccccc1Br)=NC(C)(C)C2
→ ., 25.3
- COc1ccc(OC(=O)c2csc(COc3ccc4nonc4c3)n2)cc1
→ 1.85, 0.36
- Cc1cc(C2N=C(N)Nc3nc4ccccc4n32)c(C)n1-c1ccccc1F (configuration not stated)
→ -0.55, .
- CSc1nc2sc3c(c2c(=O)n1-c1ccccc1)CCN(C(C)=O)C3
→ -1, 2.23
- COC(=O)c1ccc(/C=N/NC(=O)c2ccc([N+](=O)[O-])o2)cc1
→ ., -2.76
- CC(C)(C)Sc1ccccc1CN1CCN(C(=O)OCCc2cccs2)CC1
→ ., -0.51
- CCCn1cnc2c(NS(=O)(=O)c3ccc(F)cc3)c(C)c(C)cc21
→ ., -0.305
- O=C(NC(Cc1ccccc1)c1nc2ccccc2[nH]1)c1ccccc1F (configuration not stated)
→ ., 0.08
- CCC(Sc1nc(NCCOC)c2ccccc2n1)C(=O)NCCCOC (configuration not stated)
→ ., 2.3
- N#CC1=C(N)OC(C2CC2)=C(C#N)C1c1ccco1 (configuration not stated)
→ -0.2, 2.36
- CCN1C(=O)/C(=C/c2cn(CC)c3ccccc23)NC1=S
→ 0.05, 44.5
- O=C(OCC(=O)N1CCc2ccccc21)c1ccccc1O
→ -0.7, 0.045
- Oc1c(Cl)cc(Cl)cc1C(O)(C(F)(F)F)C(F)(F)F
→ -0.45, -0.115
